# Screens deposited in PubChem BioAssay by several laboratories.
# RN4220 kill – growth inhibition of S. aureus RN4220, primary screen, OD600 | inhibition, % (test concentration not listed) | AID 1259311, 2017 | 330,000 compounds, 0.33% hits | 16 h;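 active means z-score of -3 or lower and OD600 up to 0.18 on both plates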;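 further: plate controls were untreated cells for no effect and reference antibiotic for full effect; stock transfer was 100 nL into about 80 µL; one replicate is shown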
# Sa ugtP lethal – growth inhibition of ugtP-null S. aureus, primary screen, RN4220 ugtP deletion, OD600. 16 h; some inactives read as strong as hits. growth inhibition, % (no concentration beside the values). 330,000 compounds, 0.54% hits;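 active means z-score under -3 and OD600 up to 0.15 on both plates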;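 further: plate controls were untreated wells for no effect and antibiotic for full effect; wells of about 80 µL received 100 nL stock; the first replicate is given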
# BJeLR viability – MLPCN primary cell-based screen for lethality selective to Ras in HRASV12 cells | BJeLR (HRASV12) viability, CellTiter-Glo ATP luminescence, 48 h; reference of the scale not given here | inhibition, % (no concentration beside the values) | 300,000 compounds, 0.17% hits | AID 1554, 2009;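 active means replicate mean above 50%; inconclusive means above 50% but judged a plate artefact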;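 further: 50 nL library stock added to about 25 µL; numbers are from one replicate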
# Mtb hypoxia rep – PubChem AID 1159583; M. tuberculosis hypoxia-regulated fluorescent reporter, fluorescence; 300,000 compounds, 0.1% hits; fluorescence inhibition, % (concentration not given with the values);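 active means 35 to 45% if threefold the growth effect, above 45% if 1.5-fold the growth effect; inactive means the rest, general growth blockers included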;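 further: wells of about 50 µL received 100 nL stock; 0% = vehicle wells and 100% = reference inhibitor wells; whole bacteria with a GFP reporter of the hypoxia response; strong numbers were not always called active; many hits fall short of the cut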
# Autofluor counter – counter-screen for toxin protease inhibitors: compound fluorescence. compound autofluorescence counterscreen, microsphere flow cytometry; hits give high values. fluorescence intensity (concentration not given with the values). 360,000 compounds, 3.1% hits. AID 624483;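 active means at least 3 SD above the mean of all compounds, about 16000 in these data; inconclusive means too few beads counted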;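 further: 100 nL of 1 mM stock went into each well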
# PrP 5UTR inh – inhibition of PrP 5' UTR reporter expression. inhibition, % (no concentration beside the values). 340,000 compounds, 0.35% hits. AID 488862, 2010. cell-based PrP 5' UTR mRNA reporter, plate reader;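 active means every replicate at 50% or more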;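 further: 0 = median of the neutral control wells; tested in H4 reporter cells; numbers are from one replicate; inactives centre near -14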
# Mtb hypoxia rep growth – also measured in Mtb hypoxia rep; calls as there; growth inhibition, %; measured here: M. tuberculosis growth (absorbance);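 0% = vehicle and 100% = reference antibiotic; read after six days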
# An asterisk follows results filed as active; ? = inconclusive; nt = not tested or not shown.
SMILES,RN4220 kill,Sa ugtP lethal,BJeLR viability,Mtb hypoxia rep,Mtb hypoxia rep growth,Autofluor counter,PrP 5UTR inh
CCOc1ccc(Br)cc1C(=O)N/N=C/c1cccnc1,nt,nt,2,nt,nt,3800,9
CC(C)OCCCNC(=O)c1c(N)n(CC2CCCO2)c2nc3ccccc3nc12 (stereo not drawn),-0.5,-18,-13,-1,7,10565,16
O=C(Nc1cccnc1)c1cc(-c2ccc(Br)cc2)on1,3.4,7,-4,3,2,6207,-81
O=C(Nc1sc2c(c1C(=O)O)CCC2)c1ccccc1,26,-2,2,8,3,3925,-21
Cc1cc(CNC(=O)c2cccc([N+](=O)[O-])c2)c2ccccc2n1,11,2,-7,-3,8,4385,-7
CCN(CC)S(=O)(=O)c1ccc(C)c(NC(=O)CNCCN(C(C)C)C(C)C)c1,3.3,2,-7,0,3,4531,-13
Cc1c(O)ccc(C(=O)COc2ccc(F)cc2)c1O,-0.2,-2,6,9,13,2515,-48
Cc1ccc(-c2nc(N/N=C/c3cccnc3)c3ccccc3n2)cc1,nt,nt,1,nt,nt,10441,-72
COc1ccc(CNS(=O)(=O)c2c(C)[nH]c(C)c2C(=O)N2CCCC2)cc1,3.3,8,-14,-5,-2,5619,-7
O=C(CN1C(=O)C2CC=CCC2C1=O)NCC(=O)Nc1ccc(F)c(F)c1 (stereo not drawn),nt,nt,-7,nt,nt,?,-5
Cc1ccc(N(C(=O)CC2NC(=O)NC2=O)C2(C(=O)NC3CCCC3)CCCCC2)cc1 (stereo not drawn),1.2,1,8,4,6,3480,-12
CCOc1ccc(/C=C/C(=O)OC(C)C(=O)NC2CCCCC2C)cc1OC (stereo not drawn),2.5,6,0,-4,-2,5104,-29
Cc1cccc(-c2n[nH]c(=S)n2N=C/C=C/c2ccco2)c1,12,-5,nt,9,13,nt,nt
Cc1ccc(CNc2nc3ccccc3n3nnnc23)cc1,-2.2,1,12,nt,nt,2865,-48
O=C(NN=Cc1cc(Br)c(O)c(Br)c1O)c1ccc2c(c1)OCCO2,7.8,6,nt,8,7,nt,nt
COc1cccc(C(=O)N/N=C(\C)CC(=O)Nc2ccc(N(C)C)cc2)c1,nt,nt,-3,nt,nt,3207,-12
COc1ccc(C)cc1S(=O)(=O)Nc1cc2c3c(c1)CCC(=O)N3CCC2,7.9,8,1,4,2,6466,0
CC1CC(N(C(=O)c2ccc(Cl)cc2)c2ccccc2)c2ccccc2N1C(=O)c1ccco1 (stereo not drawn),-9.9,-3,-1,nt,nt,2535,-27
CCOc1ccccc1NC(=O)c1cc(-c2cc(OC)c(OC)c(OC)c2)nc2ccccc12,-5.5,-5,-6,12,6,5862,-15
Cc1ccc(NC(=O)COC(=O)Cc2csc(-c3ccc(Cl)cc3)n2)cc1C,8.1,2,nt,0,2,6655,-14
Cc1cc2ccccc2n2c(SCC(=O)NCC3CCCO3)nnc12 (stereo not drawn),2.4,3,-6,8,5,nt,nt
COc1ccc(C=NN2CCN(Cc3ccccc3)CC2)cc1,2.0,5,nt,2,2,nt,nt
O=C(COC(=O)C1=COCCO1)NCc1ccc(Cl)cc1,1.6,2,-21,14,2,4612,-9
O=C(O)c1cc(NS(=O)(=O)c2ccc(F)cc2)cc(NS(=O)(=O)c2ccc(F)cc2)c1,0.8,1,nt,3,2,3948,-8
Cc1nn(C)c(C)c1S(=O)(=O)NC1CCCc2ccccc21 (stereo not drawn),-1.7,-3,1,nt,nt,2744,-11
CN(CCc1ccccn1)Cc1ccc(Cl)cc1,0.1,11,5,6,1,20900*,-34
Cc1cc(N2CC(C)OC(C)C2)n2cc(-c3ccccc3)nc2n1 (stereo not drawn),2.3,7,0,6,0,3416,-14
CCCn1nc(NS(=O)(=O)c2ccccc2)c2cc3cc(C)ccc3nc21,-2.5,-10,-16,-7,3,2581,-7
CC(=O)N1CCC(C(=O)NC2CCCc3c2cnn3-c2cc(F)cc(F)c2)CC1 (stereo not drawn),4.3,-1,-4,-4,-5,4098,14
CC1CN/C(=C\C(=O)c2ccccc2)C(=O)N1 (stereo not drawn),-12,-4,-5,19,6,3001,-71
Cc1c(O)c(=O)ccn1C,nt,nt,-1,nt,nt,5971,-1
Cc1nn(C)cc1C(C)NC(=O)c1cc(COc2c(F)cccc2F)on1 (stereo not drawn),-1.4,1,5,-9,3,2616,1
Cc1nonc1C(=O)N1CCCC(Nc2ccc(C(C)C)cc2)C1 (stereo not drawn),1.5,-1,3,8,-1,5741,-8
Cn1c(=O)c2c(ncn2CCNC2=NCCCCC2)n(C)c1=O,2.2,8,-17,9,9,3237,-4
COc1ccc(CNc2oc(COc3ccccc3)nc2C#N)cc1,4.3,-3,-5,1,8,9489,11
O=C1NCCCC1C(=O)N/N=C/c1ccccc1O (stereo not drawn),nt,nt,6,nt,nt,2479,-3
O=C(CN1CCN(Cc2ccccc2)CC1)Nc1ccc2c(c1)CCC2,2.5,-11,-10,-4,0,3126,-10
COc1ccc(NC(=O)C2CCC(N3C(=O)C4CCCCC4C3=O)CC2)cc1 (stereo not drawn),2.8,3,1,2,-6,3795,-20
CCOC(=O)Cn1c(=O)n(C2CCCC2)c(=O)c2ccccc21,4.1,7,4,nt,nt,4333,-18
CCC(CO)Nc1ccc(-c2nn(C)c(=O)c3ccccc23)cc1[N+](=O)[O-] (stereo not drawn),5.5,7,-6,3,3,2404,-11
CN(C)CCCN(C(=O)c1ccc(S(=O)(=O)N(C)Cc2ccccc2)cc1)c1nc2cc3c(cc2s1)OCO3,-2.6,1,6,18,14,5632,-1
CC(OC(=O)C1CC(=O)N(Cc2ccco2)C1)C(=O)Nc1cccc(C#N)c1 (stereo not drawn),2.2,5,nt,12,3,?,-19
COc1ccccc1C(=O)NC(=O)COC(=O)c1cccc(OC(F)F)c1,0.2,7,0,8,3,nt,-22
Cc1cc2cc3c(N)[nH]nc3nc2cc1C,7.9,22,10,-6,6,9921,-20
COc1cc(C(=O)OCc2cc(=O)oc3c(C)c(C)ccc23)ccc1OC(F)F,5.3,6,0,10,-4,4001,-13

# Copied from the entries so far, 4 compounds:
SMILES,RN4220 kill,Sa ugtP lethal,BJeLR viability,Mtb hypoxia rep,Mtb hypoxia rep growth,Autofluor counter,PrP 5UTR inh
CC(OC(=O)C1CC(=O)N(Cc2ccco2)C1)C(=O)Nc1cccc(C#N)c1 (stereo not drawn),2.2,5,nt,12,3,?,-19
COc1ccccc1C(=O)NC(=O)COC(=O)c1cccc(OC(F)F)c1,0.2,7,0,8,3,nt,-22
Cc1cc2cc3c(N)[nH]nc3nc2cc1C,7.9,22,10,-6,6,9921,-20
COc1cc(C(=O)OCc2cc(=O)oc3c(C)c(C)ccc23)ccc1OC(F)F,5.3,6,0,10,-4,4001,-13

# More compounds follow:
SMILES,RN4220 kill,Sa ugtP lethal,BJeLR viability,Mtb hypoxia rep,Mtb hypoxia rep growth,Autofluor counter,PrP 5UTR inh
O=c1ccc(S(=O)(=O)N2CCCC2)c[nH]1,6.5,11,nt,17,35,2853,-12
Cc1nn(CC(=O)NCCN2CCCCCC2)c(=O)c2nn(-c3ccccc3)c(C)c12,-0.9,5,1,5,1,6160,-7
CC(=O)Nc1ccc(-c2cc(C(=O)O)c3ccccc3n2)cc1,2.4,-11,-7,6,-4,4466,-10
O=C(OCC(=O)c1ccc[nH]1)c1ccc(C(F)(F)F)cc1,3.8,2,nt,-1,9,4283,-8
O=C(NCCN1CCOCC1)c1sc2cc(Cl)ccc2c1Cl,-1.4,0,-3,13,15,5354,-29
COCc1cc(=O)[nH]c(/N=C(\N)Nc2ccc(C)cc2C)n1,nt,nt,-2,nt,nt,3566,-8
COCc1ccc(C(=O)NC(C)c2cnn(-c3ccccc3C)c2C)o1 (stereo not drawn),6.5,3,2,13,0,4634,-17
CCN(CC(=O)Nc1cccc(OC)c1)CC(=O)Nc1ccc(C)cc1Cl,8.4,8,-3,-6,12,5101,-28
Cc1cc(C)c(C#N)c(SCc2ccccc2[N+](=O)[O-])n1,5.6,-4,-6,13,5,2565,-25
CN(C)C(=O)Oc1ccc(Cl)c2ccccc12,9.1,12,-3,nt,nt,10104,-24
O=C1CN(S(=O)(=O)c2ccccc2)CCN1,2.0,4,nt,5,2,3640,-16
O=C(Nc1cccc(-c2cn3cccnc3n2)c1)c1ccco1,-2.4,-15,1,-20,2,10527,-17
Cc1ccc(NC(=O)Cc2nnc(SCC(=O)Nc3ccc(N4CCOCC4)cc3)n2C)cc1,3.8,1,2,16,6,3280,0
O=C(O)c1cccc(CSc2nnc(-c3cccnc3)o2)c1,1.5,1,-4,10,-1,2818,-25
COc1ccc(OCCNC(=O)C(Cc2c[nH]c3ccccc23)NC(C)=O)cc1 (stereo not drawn),4.1,0,-6,-1,-1,3363,-22

# Single records, from the list above. Values in the order: RN4220 kill | Sa ugtP lethal | BJeLR viability | Mtb hypoxia rep | Mtb hypoxia rep growth | Autofluor counter | PrP 5UTR inh
# `O=C(O)c1cccc(CSc2nnc(-c3cccnc3)o2)c1` is listed with 1.5 | 1 | -4 | 10 | -1 | 2818 | -25
# `Cc1nn(CC(=O)NCCN2CCCCCC2)c(=O)c2nn(-c3ccccc3)c(C)c12` is listed with -0.9 | 5 | 1 | 5 | 1 | 6160 | -7

# Following part
SMILES,RN4220 kill,Sa ugtP lethal,BJeLR viability,Mtb hypoxia rep,Mtb hypoxia rep growth,Autofluor counter,PrP 5UTR inh
CCOC(=O)CC(NC(=O)Cc1ccccc1)c1ccccc1Cl (stereo not drawn),2.3,7,-1,-4,-3,8182,-4
CC(C)Cc1ccc(S(=O)(=O)Nc2cccnc2)cc1,8.4,-1,-5,3,-4,3092,-8
O=C(Nc1cccnc1Cl)c1cccnc1Cl,-0.4,0,-1,7,7,4800,-5
CC(C)Oc1cccc(C(=O)NC(=S)NCc2cccnc2)c1,3.4,-9,-2,-2,10,2389,2
Cc1nn(-c2ccccc2)c(C)c1/C=N/NC(=O)CSc1nnc(SCc2cccc3ccccc23)s1,nt,nt,-19,nt,nt,2046,-27
CCNC(=S)NNC(=O)Cn1nc(C)cc1C,-1.0,-2,6,4,11,10891,-3
CCCc1nnc(NC(=O)CCC(=O)N2CCC(Cc3ccccc3)CC2)s1,2.6,-2,5,5,-4,4720,-5
O=C(Nc1cccnc1)c1ccc(CN2CCc3ccccc3C2)cc1,0.9,10,10,7,0,6908,-14
CC(C)CC(NC(=O)c1[nH]cnc1C(=O)Nc1ccccc1)C(=O)OC(C)(C)C (stereo not drawn),-14,-10,nt,0,10,nt,nt
Cc1cc(C)c2nc(NNC(=O)c3ccc(S(=O)(=O)N4CCCCC4)cc3)sc2c1,2.1,-2,14,5,4,6371,-24
O=C1CC(c2ccco2)Sc2ccccc2N1 (stereo not drawn),6.3,6,-7,9,14,3756,-17
CCCCc1nc2cc(C(=O)N3CCNC(=O)C3CC(=O)OC)ccc2o1 (stereo not drawn),1.0,2,1,0,-5,5563,-19
CSc1ncccc1C(=O)Nc1nc2ccc(F)cc2s1,-1.4,4,-3,4,5,4182,-33
CCCCCCCOc1ccc(C(=O)Nc2cccnc2)cc1,-2.6,-5,-9,-3,9,3339,-28
Cc1[nH]n(-c2ccccc2)c(=O)c1N=Nc1ccc(C(=O)O)cc1,3.3,-1,1,8,8,3769,-30
CC(C)N1CCN(S(=O)(=O)c2ccc3ccccc3c2)CC1,4.1,7,3,-4,1,nt,-51
O=C1CSC(=S)N1/N=C/C=C/c1ccccc1,nt,nt,16,nt,nt,1986,-20
CCc1noc(C)c1C(=O)Nc1nc(-c2ccccc2)c(C(C)=O)s1,5.3,7,nt,11,8,4118,-3
CCOC(=O)c1c(C)c(C(=O)Nc2cc(OC)ccc2OC)c(C)n1CC,4.3,-1,2,6,0,8477,-8
Cc1ccc(NS(=O)(=O)c2ccc(NC(=O)c3cccs3)cc2)cc1,1.6,-14,3,-1,10,2643,-5
COc1ccc(-n2c(=O)c3c4c(sc3n(CC(=O)NCc3ccco3)c2=O)CCC4)c(OC)c1,-2.5,-6,2,3,1,9864,-24
CCOc1ccc2nc(SC3CC(=O)N(c4ccc(C)cc4)C3=O)sc2c1 (stereo not drawn),2.3,2,-9,5,-4,7886,-32
Cc1ccc(S(=O)(=O)Oc2cccc(N3C(=O)C4CC=CCC4C3=O)c2)cc1 (stereo not drawn),-1.3,-2,1,1,17,5807,-2
Cc1cccc(NC(=S)N(CCCN2CCOCC2)Cc2cn(C)c3ccccc23)c1,2.3,-1,-2,1,0,7514,-7
COc1ccc(-n2nc3ccc(NS(C)(=O)=O)cc3n2)cc1Cl,-3.9,-7,nt,nt,nt,2641,-26
O=C1Nc2ccccc2C1=Nc1sc2c(c1C(=O)Nc1ccccc1)CCCC2,1.3,-11,nt,-4,11,nt,nt
